VACV mCherry inh: qHTS for Stage-Specific Inhibitors of Vaccinia Orthopoxvirus: mCherry Reporter Primary qHTS; Vaccinia virus mCherry reporter infection, fluorescence; about a quarter of the inactives have no number; Potency, µM (series often up to 36.5 µM), without a hit: at the highest dose activity change, negative = inhibition, hits mostly inhibitors; 310,000 compounds, 0.63% hits; AID 720579, 2013; active = well fitted inhibition curve with a large enough effect; inconclusive = small, poorly fitted or top-dose-only effect; inactive = no such curve, though single readings can be large or run the other way; tested in A549 cells; further: nearly all actives have a fitted effect of over 35% in size; inactives centre near -10
VACV Venus inh: qHTS for Stage-Specific Inhibitors of Vaccinia Orthopoxvirus: Venus Reporter Primary qHTS | Vaccinia virus Venus reporter expression, fluorescence | Potency, µM (highest dose often 36.5 µM), without a hit: top-dose activity change, negative = inhibition, usual class: inhibitors | 330,000 compounds, 0.46% hits; active means well fitted inhibition curve with a large enough effect; inconclusive means small, poorly fitted or top-dose-only effect; inactive means no such curve, though single readings can be large or run the other way; tested in A549 cells; further: nearly all actives have a fitted effect of over 30% in size; inactives centre near -10
An asterisk follows results filed as active; i = inactive; ? = inconclusive; nt = not tested or not shown; [ ] = remark or other dose. On the % scale 0 is the no-effect control and ±100 the full control effect; potency means the concentration at half of the fitted maximal effect. No enrichment for hits; 0.87% or so of the library scored in one or more.

SMILES	VACV mCherry inh	VACV Venus inh
Cc1ccc(C)c(NC(=S)N(CCN(C)C)C(C)c2ccccn2)c1 (centres undefined)	-14%	0%
CCCNC(=O)C(=O)Nc1ccc2c(c1)N(S(=O)(=O)c1cccs1)CCC2	-11%	-21%
Cc1ccc(C)c(NC(=O)CN(C)C(=O)c2ccccc2OCc2ccccc2Cl)c1	-25%	-15%
O=C(NC1CCCCCC1)c1cccnc1Sc1ccc(Cl)cc1	-18%	-29%
Cc1nn(C(=O)CCCn2cc([N+](=O)[O-])cn2)c(C)c1Cl	4%	6%
Cc1ccc(C(C(=O)NC2CCCCC2)N(CC2CCCO2)C(=O)CNC(=O)c2cccs2)cc1 (centres undefined)	-15%	-4%
CCN(c1ccc(NC(=O)CSc2ccc3c(c2)OCCO3)cc1)C(C)C	-6%	-17%
O=S(=O)(Cc1ccccc1Cl)c1ncn[nH]1	i	0%
COc1ccc(C2/C=C\CN(C(=O)Oc3ccc(C(F)(F)F)cc3)CC(=O)N2Cc2ccc(F)cc2)cc1 (centres undefined)	i	-25%
CCOC(=O)c1cc(-c2ccc(OC)c(S(=O)(=O)Nc3ccc(OC)cc3OC)c2)on1	-6%	-4%
CCOC(=O)N1CCN(Cc2nc3cc(NC(=O)CC)ccc3n2C(C)C)CC1	-26%[7.34 µM]	-21%[7.34 µM]
CCOc1cc(C(=O)CSc2nnc(CNc3ccc(Cl)cc3)o2)ccc1NC(=O)CC	?	13µM*
CCc1cc2c(=O)[nH]c(CC(N)=O)nc2s1	i	-1%
CC1Cc2ccccc2N1S(=O)(=O)c1nnc(NC(=O)c2ccccc2Br)s1 (centres undefined)	-8%	-4%
CN(C)CCNc1oc(/C=C/c2ccccc2)nc1C#N	i	-1%
O=C1N=C(N2CCOCC2)S/C1=C\c1ccncc1	-1%	-8%
CC[C@]12c3[nH]c4cc(CCC(=O)N(C)C)ccc4c3CCN1C(=O)[C@@H](CC(=O)NCc1ccc(OC)c(OC)c1)C[C@@H]2C(=O)N1CCN(C(=O)C2CC2)CC1	-6%	-9%
Cc1cc(C)c(S(=O)(=O)c2ccc(Cl)cc2)c(=O)[nH]1	i	-2%
COc1ccc(NC(=O)CCCC(=O)OCC(F)(F)C(F)F)cc1	-7%	1%
Cc1cc(C(=O)COC(=O)c2cc(O)c3ccccc3c2O)c(C)n1CC1CCCO1 (centres undefined)	i	0%
O=C1c2ccccc2-c2onc3ccc(NCCCn4ccnc4)c1c23	-1%	21%
O=C(CCCc1ccccc1)Nc1cccnc1	nt	-6%
CCOc1ccc2nc(N3CCC(C(=O)Nc4nnc(CC)s4)CC3)sc2c1	11%	-4%
COc1ccc(C(=O)N2CCN(C)C(=O)[C@@H]2C)cc1OC1CCN(C(C)=O)CC1	-7%	-1%
O=C(CCCC(=O)N/N=C\c1ccccn1)N/N=C\c1ccccn1	-3%	-7%
CCCCn1c(O)c(C=NCCN2CCCCC2)c(=O)[nH]c1=O	nt	0%
O=C(O)c1ccc(C2Nc3ccccc3C(=O)N2Cc2ccccc2)cc1 (centres undefined)	-6%	2%
O=C(Nc1ccc2nc3n(c(=O)c2c1)CCCCC3)c1ccccc1[N+](=O)[O-]	-5%[7.34 µM]	-1%[7.34 µM]
Oc1c(C(c2ccccc2)N2CCOCC2)sc2nc(-c3ccco3)nn12 (centres undefined)	-16%	-11%
CN(C(=O)COC(=O)c1ccc(Cl)nc1)C1CCS(=O)(=O)C1 (centres undefined)	-6%	-16%
O=C1OC(C(=O)Nc2cccc(Br)c2)Cc2ccccc21 (centres undefined)	-1%	-3%
COc1ccc(/C(C)=N\NS(=O)(=O)c2ccccc2)cc1OC	-14%	-14%
CCOc1ccc(OC(=O)c2cn(-c3ccc(C)cc3)c(=O)c3ccccc23)cc1	-12%	-9%
COc1nccnc1NS(=O)(=O)c1ccc(NC(=S)NC(=O)c2ccc(F)c(F)c2)cc1	-25%	-25%
COc1ccc(Cl)cc1C(=O)NC(=S)Nc1nc(C)cc(C)n1	i	-12%
Cc1cc(O)c(C(C)C)cc1N=Cc1ccc([N+](=O)[O-])cc1	-1%	-10%

Some of the entries so far, with bars between the fields:
SMILES | VACV mCherry inh | VACV Venus inh
COc1ccc(/C(C)=N\NS(=O)(=O)c2ccccc2)cc1OC | -14% | -14%
CCOc1ccc(OC(=O)c2cn(-c3ccc(C)cc3)c(=O)c3ccccc23)cc1 | -12% | -9%
COc1nccnc1NS(=O)(=O)c1ccc(NC(=S)NC(=O)c2ccc(F)c(F)c2)cc1 | -25% | -25%

Next part.
SMILES	VACV mCherry inh	VACV Venus inh
CC1CCN(S(=O)(=O)c2ccc3c(c2)CCN3C(=O)Nc2ccccc2Br)CC1	-21%	-12%
CN1CCNC(=O)C1CC(=O)N1CC=C(c2ccc(F)cc2)CC1 (centres undefined)	-11%	-8%
CCCS(=O)(=O)c1c(S(=O)(=O)CCC)c2cnccn2c1C(=O)c1ccc(F)cc1	?	?
O=C1c2ccccc2C(=O)c2c([N+](=O)[O-])ccc(O)c21	i	30%
Cc1ccc(CN(C)C(=O)c2ccc(NS(=O)(=O)c3ccc4[nH]c(=O)[nH]c4c3)cc2)cc1	i	-8%
O=C(COC(=O)c1ccccc1OCCOc1ccccc1)Nc1cccc(Br)c1	-3%	-10%
O=C(Nc1ccccc1)c1ccccc1Oc1ccc(C(F)(F)F)cc1[N+](=O)[O-]	i	-29%
CCOC(=O)c1ccc(NC(=O)CN2CCN(CCN=CC3=C(O)CC(C)(C)CC3=O)CC2)cc1	0%	0%
CCOc1ccc(C(=O)c2ccccc2C(=O)O)cc1OCC	i	-3%
O=C(CSc1c[nH]c2ccccc12)NCc1ccc2c(c1)OCO2	i	-5%
CCCC(=O)N1CCC1(C)C(=O)Nc1cc(C)ccc1C (centres undefined)	-4%	-3%
COc1cc2c(c(OC)c1OC)-c1ccc(OC)c(=O)cc1[C@@H](N(C)CC#CCO)CC2	-16%	?
COc1ccc(-c2nc(=S)c3c(n2CCN2CCOCC2)CC(C)(C)OC3)cc1	nt	10%
CCC1=Nc2ccccc2NC2=C1C(=O)CCC2	nt	17%
O=C(N/N=C/c1cn(-c2cccs2)nc1-c1ccccc1)c1ccccc1O	13µM*	?
CN(c1ccccc1)S(=O)(=O)c1ccc(Cl)c(C(=O)Nc2ccc(-c3nc4ccccc4[nH]3)cc2)c1	?	?
CC(Oc1ccc2ccccc2c1)C(=O)N/N=C/c1cccnc1 (centres undefined)	i	-5%
O=C(NCC1CCCO1)C1CCC(CNS(=O)(=O)c2ccccc2)CC1 (centres undefined)	nt	-8%
COc1cccc(Cn2c(C)c(CNC3CCCCC3)c(C(=O)O)c2C)c1	-14%	-11%
O=C(O)CCC(=O)NCc1c(Cl)cccc1Sc1ccc(Cl)cc1	i	-5%
COc1ccc(NC(=O)c2cc(C3CCCCN3S(=O)(=O)c3ccc(C#N)cc3)on2)c(C)c1 (centres undefined)	i	-14%
COc1ccc2c(C)cc(SCc3c(C)noc3C)nc2c1	-12%	-8%
O=[N+]([O-])c1ccccc1N/N=C1\CCc2ccccc21	-8%	4%
Cc1ccc(C)c(OCC(=O)Nc2c[nH]c(=O)[nH]c2=O)c1	0%	-8%
C=CCn1c(CNC(=O)c2ccco2)nnc1SCC(=O)Nc1cccc(F)c1	-5%	6%
COC(=O)C1=C(c2c(C)noc2C)C[C@@H]2CC[C@H]1N2C(=O)NCc1ccco1	i	-9%
Cc1csc(NC(=O)CCC(=O)N(CC(=O)NC2CCCC2)Cc2ccccc2)n1	45%[activator]	16%
Nc1cc[n+](CC(=O)Nc2ccccc2)cc1	-3%	-18%
CCSc1ccccc1C(=O)N1CCN(Cc2ccc3c(c2)OCO3)CC1	-16%	-8%
CCC/C=C(\CCC)C(NC(=O)c1ccc(C(=O)OC)cc1)c1ccc(C(=O)OC)cc1 (centres undefined)	-22%	-1%
COc1cccc(CNC(=O)c2cc(S(=O)(=O)N3CCCCCC3)cn2C)c1	-10%	-13%
O=c1cc(-c2ccccc2)[nH]c2ccccc12	?	?
CNC(=O)c1cc(S(=O)(=O)Nc2ccc3c(c2)OCO3)ccc1C	-13%	-11%
O=C(NC1CCCCCC1)c1ccc2nc3cc(Cl)ccc3c(=O)n2c1	i	0%
O=S(=O)(c1ccc(Cl)cc1)c1ccc(Cl)cc1	i	-10%
COc1ccc(-c2cn3cc([N+](=O)[O-])ccc3n2)cc1OC	i	-7%
COc1ccc(CCNC(=O)CSc2cn(Cc3cccc(C)c3)c3ccccc23)cc1OC	?	?
COc1ccccc1C(=O)OCC(=O)NC(=O)NCc1ccccc1	i	-14%
CN(C)c1ccc(Nc2ccc([N+](=O)[O-])cn2)cc1	?	-21%
Cc1ccc(C(=O)OCC(=O)N2CCC(c3ccccc3)=N2)cc1	-8%	-16%
COc1cccc(C(=O)NC(=S)Nc2ccccc2N2CCOCC2)c1	i	-12%
CN(C)/C=C/C(=O)c1cc(F)cc(C(F)(F)F)c1	i	4%
Cc1ccc(S(=O)(=O)/N=C2\SC(CC(=O)Nc3ccc(F)cc3)C(=O)N2c2ccccc2)cc1 (centres undefined)	-14%	-8%
Cc1nn(CC(=O)NC2CC2)c(C)c1S(=O)(=O)NC(C)(C)C	-13%	3%
Cc1cc(NC(=O)c2ccco2)ccc1NC(=O)c1ccco1	-13%	-11%
Cc1nn(C)cc1CNC(=O)C1(C)CC1(Cl)Cl (centres undefined)	-13%	5%
CC(C)CC1NC(=O)N(CC(=O)N2CCCc3ccccc32)C1=O (centres undefined)	-5%	-3%
COC(=O)C1Cc2c([nH]c3ccccc23)CN1 (centres undefined)	-10%	-4%

Rewritten as comma-separated lines: two of the compounds above
Molecule,VACV mCherry inh,VACV Venus inh
CN(C)c1ccc(Nc2ccc([N+](=O)[O-])cn2)cc1,?,-21%
COc1cccc(C(=O)NC(=S)Nc2ccccc2N2CCOCC2)c1,i,-12%

(more compounds)
SMILES	VACV mCherry inh	VACV Venus inh
O=C(c1ccc2c(c1)OCCO2)N(Cc1cccnc1)c1nc2ccc(Cl)cc2s1	-2%[7.34 µM]	-6%[7.34 µM]
C=Cc1ccc(C(=O)N2CCCC(Nc3ccc4c(c3)OCCO4)C2)cc1 (centres undefined)	-21%	-20%
O=C(Nc1ccccc1Br)C1CCN(C(=O)Cc2ccccc2)CC1	-18%	-21%
COc1cc2c(NC3CCN(C)CC3)nc(N3CCN(C)CC3)nc2cc1OCCCN(C)C	?	?
CN(C)C(CNC(=O)c1cccc(S(=O)(=O)N2CCc3ccccc3C2)c1)c1ccccc1 (centres undefined)	-26%	-30%
CCn1c(=O)c(=O)[nH]c2cc(C(=O)N(C)Cc3ccc(OC)c(F)c3)ccc21	-5%	5%
CC(=O)N1CCC(=NNc2ccc(S(=O)(=O)N3CCOCC3)cc2[N+](=O)[O-])CC1	-2%	-11%
CCOC(=O)C(=O)NCc1ccc(/C=C2/N=C(C)C(C(=O)OCC)=C2O)o1	-7%	3%
CC1(C)Nc2ccccc2N(CC(=O)N2CCCCC2)C1=O	nt	-3%
Cc1ccc(NC(=O)/C(C#N)=C/c2cccs2)c(C)c1	nt	-18%
O=C(COc1ccc(Br)cc1)NCCCNC(=O)c1cnccn1	-2%	6%
CCOC(=O)CCc1c(C(=O)OCC)[nH]c(CC)c1C(=O)OCc1ccccc1	-24%	-19%
CCC(C)(C)n1nnnc1C(c1cc2cc(C)ccc2[nH]c1=O)N1CCCc2ccccc21 (centres undefined)	-15%	-6%
COC(=O)c1ccc(C(=O)OC)c(=O)[nH]1	i	-10%
Cc1oncc1-c1csc(-c2ccccc2)n1	i	-16%
Cc1cc([N+](=O)[O-])nn1CCCC(=O)NC(C)c1ccccc1 (centres undefined)	-8%	-5%
O=C(O)c1ccc(CSc2nnc(-c3cccnc3)n2-c2ccc(Br)cc2)cc1	-12%	-10%
COc1ccc(Nc2oc(-c3ccc(COc4ccc(OC)cc4)o3)nc2C#N)cc1	?	?
c1ccc(COc2nsnc2N2CCOCC2)cc1	i	-7%
Cc1cccc(C(=O)Nc2cc3c(cc2N2CCOCC2)n(C)c(=O)n3C)c1	-12%	12%
COC(=O)c1oc2ccc(Br)cc2c1NC(=O)CCCN1C(=O)c2ccccc2C1=O	-18%	-5%
COC(=O)[C@]12CCCCC=C1N(Cc1ccc(Cl)cc1Cl)C(=O)[C@H](CC(=O)NCc1ccc(C)o1)C2	33%[activator]	-1%

Record cards, as listed above:
Cc1cccc(C(=O)Nc2cc3c(cc2N2CCOCC2)n(C)c(=O)n3C)c1 as listed: VACV mCherry inh: -12%; VACV Venus inh: 12%
COC(=O)c1oc2ccc(Br)cc2c1NC(=O)CCCN1C(=O)c2ccccc2C1=O as listed: VACV mCherry inh: -18%; VACV Venus inh: -5%
c1ccc(COc2nsnc2N2CCOCC2)cc1 as listed: VACV mCherry inh: i; VACV Venus inh: -7%

Source: PubChem (National Center for Advancing Translational Sciences (NCATS))
